CtBP-E1A inh: CtBP/E1A binding inhibition; AID 651724; hit rate 0.49% among 340,000; AlphaScreen GST-E1A/His-CtBP binding, 1536-well; hits give low values; control for the full effect not named in the record; activity change, % (concentration not given with the values); in the data active means activity change below about -65%; inconclusive means about -30% to -65%; inactive means above about -30%; note: % is set by controls: 0 for no effect and ±100 for the full control effect
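Steps: dispense buffer (Tris pH 8.0, NaCl 300 mM, TCEP 1 mM, BSA, Tween 20); add 5X protein mix (GST-E1A, His-CtBP, 125 nM each); pin 23 nL compound; 2 h at 37 °C, dark; add 5X beads (50 ug/mL); 1 h; read.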
ClpP mod: qHTS Assay for Activators of ClpP. ATP-dependent Clp protease proteolytic subunit (Bacillus subtilis (strain 168)), P80244. purified B. subtilis ClpP, FRET peptide cleavage, 20 min. Potency, µM (series often up to 57.5 µM), for inactives: at the top dose activity change, negative = active. hit rate 1.9% among 340,000. AID 651965, 2013; active = well fitted falling curve with a large enough effect; inconclusive = small, poorly fitted or top-dose-only effect; inactive = no such curve, though single readings can be large or run the other way; note: potency is the fitted concentration of half-maximal effect; the source files actives as falling curves though it sought activators and does not explain the sign; nearly all actives have a fitted effect of over 65% in size; many hits overshoot -100%
Target sequence (P80244 whole entry, looked up): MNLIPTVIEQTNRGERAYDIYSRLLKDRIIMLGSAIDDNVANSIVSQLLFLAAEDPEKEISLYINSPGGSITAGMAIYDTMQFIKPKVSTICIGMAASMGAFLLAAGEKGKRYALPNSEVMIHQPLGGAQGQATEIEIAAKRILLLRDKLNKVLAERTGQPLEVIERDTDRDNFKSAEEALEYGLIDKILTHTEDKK
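Buffer: 100 mM Tris/HCl pH8, 100 mM KCl, 0.05% low protease BSA, 2.5% glycerol, 0.01% Tween-20. ClpP 10 microg/mL final; 20 min RT; delta FRET normalized to ADEP and DMSO controls.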
Sfp inh: blocks B. subtilis Sfp PPTase activity; AID 1490; Q9F4F7; Biochemical Sfp PPTase activity, qHTS; Potency, µM, for the others: max response, negative = inhibition, most hits filed as inhibitors; hit rate 3.5% among 310,000; active = well fitted inhibition curve with a large enough effect; inconclusive = small, poorly fitted or top-dose-only effect, or another doubt; inactive = no such curve, though single readings can be large or run the other way;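 note: the enzyme is Sfp with the accession as filed and its product quenches rhodamine fluorescence; potency is the fitted concentration of half-maximal effect; 0% = enzyme reaction without inhibitor and -100% = no enzyme wells; top concentration of the series not given in the record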
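Compounds were incubated with enzyme (final 15 nM) for 15 min at room temperature before substrate addition started the reaction. Fluorescence at 525 nm excitation, 598 nm emission was recorded immediately and after 30 minutes.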
Menin MLL FP FL: inhibitors of human menin-MLL interaction, wild-type MLL peptide; FP activity change, % at 61.4 µM; 290,000 tested, under 10 active; Fluorescence polarization, fluorescein-MLL peptide displacement from menin; AID 1766; inconclusive = falling polarisation curve, or a change in total fluorescence; inactive = total fluorescence flat and polarisation flat or rising; no compound was filed as active; the % refers to the polarisation; negative = inhibition;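 note: % of control where 0% means no effect; inhibitors lower the polarisation; unlabelled MLL peptide was the positive control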
gsp antagonist: antagonizes gsp, the McCune-Albright syndrome mutation; hit rate 0.4% among 340,000; gsp-mutant cells, cAMP HTRF, 30 min; control for the full effect not named in the record; Potency, µM (titrated, usually from 76.9 µM), for the others: top-dose activity change, negative = inhibition, actives largely listed as inhibitors; active = falling curve of any shape with a large fitted effect; inconclusive = falling curve, mostly with a smaller effect; inactive = flat or rising curve; cell line not stated here;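 note: intracellular cAMP measured with PDE inhibitor Ro 20-1724 present during compound exposure; potency is the fitted concentration of half-maximal effect; % is set by controls: 0 for no effect and ±100 for the full control effect; nearly all actives have a fitted effect of over 65% in size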
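HTRF cAMP read-out (cAMP-d2 plus anti-cAMP antibody-K in lysis buffer, 30 min RT). Before lysis, cells are exposed to compounds with […] for 30 min at 37C in DPBS containing Ca/Mg, BSA and Tween 20.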
TRPV1 potentiator: potentiators of human vanilloid receptor 1 (TRPV1); hit rate 0.02% among 320,000; Q8NER1; AID 540277; TRPV1-expressing cells, Fluo-8 calcium influx, capsaicin EC20 potentiation; host cell line not named in the record; control for the full effect not named in the record; potentiation, % at 8.33 µM; active means potentiation above 80%; inconclusive means 30% to 80%; inactive means below 30%; note: 0% is about no effect
Target sequence (Q8NER1 whole entry, looked up): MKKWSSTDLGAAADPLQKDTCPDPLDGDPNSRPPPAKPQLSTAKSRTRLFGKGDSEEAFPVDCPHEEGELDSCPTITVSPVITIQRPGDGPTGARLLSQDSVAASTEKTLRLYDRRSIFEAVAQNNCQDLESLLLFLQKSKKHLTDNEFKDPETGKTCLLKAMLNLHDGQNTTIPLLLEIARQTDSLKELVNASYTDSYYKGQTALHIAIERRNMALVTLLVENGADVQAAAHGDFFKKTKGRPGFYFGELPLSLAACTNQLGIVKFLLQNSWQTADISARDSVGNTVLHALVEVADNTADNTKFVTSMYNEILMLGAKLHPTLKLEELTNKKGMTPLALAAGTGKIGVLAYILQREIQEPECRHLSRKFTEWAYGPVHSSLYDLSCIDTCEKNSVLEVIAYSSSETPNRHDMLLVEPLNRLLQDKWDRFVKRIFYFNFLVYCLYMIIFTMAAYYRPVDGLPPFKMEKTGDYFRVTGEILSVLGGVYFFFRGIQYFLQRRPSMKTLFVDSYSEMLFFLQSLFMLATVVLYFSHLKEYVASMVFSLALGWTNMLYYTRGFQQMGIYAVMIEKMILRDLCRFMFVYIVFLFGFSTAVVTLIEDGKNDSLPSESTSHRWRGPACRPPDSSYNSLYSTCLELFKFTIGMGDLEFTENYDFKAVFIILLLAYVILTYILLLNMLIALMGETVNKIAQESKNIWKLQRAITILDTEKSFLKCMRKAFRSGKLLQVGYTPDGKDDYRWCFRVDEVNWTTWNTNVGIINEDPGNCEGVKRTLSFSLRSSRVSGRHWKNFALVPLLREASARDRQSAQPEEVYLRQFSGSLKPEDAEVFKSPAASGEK
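Cells expressing TRPV1 were dye-loaded with Fluo-8 and read kinetically: 10 s baseline, 3 min after compound (agonist portion), then 2 min after EC20 capsaicin (allosteric enhancer portion). Calcium-bound dye fluorescence at 480/520 nm.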
gsp ag: activates gsp, the McCune-Albright syndrome mutation; hit rate 0.13% among 340,000; gsp mutant cells, cAMP HTRF, 30 min; control for the full effect not named in the record; Potency, µM (top dose mostly 76.9 µM), for inactives: at the top dose activation (cAMP increase), actives largely listed as activators; active = well fitted activation curve with a large enough effect; inconclusive = small, poorly fitted or top-dose-only effect, or another doubt; inactive = no such curve, though single readings can be large or run the other way; cell line not stated here;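 note: phosphodiesterase inhibitor Ro 20-1724 added with compounds to block cAMP breakdown; potency is the fitted concentration of half-maximal effect; nearly all actives have a fitted effect of over 60% in size; about a fifth of the inactives were tested at one dose only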
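Cells stably selected in G418 were plated at 2000/well, grown 16-24 hr, then given compounds in DMSO with the PDE inhibitor […] (300 uM solution added) for 30 min at 37C; cAMP was read by HTRF.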
The depositor's hits bear a star; ? = inconclusive; · = no result given; & = joins results of further samples; [ ] = remark or other dose.

SMILES	CtBP-E1A inh	ClpP mod	Sfp inh	Menin MLL FP FL	gsp antagonist	TRPV1 potentiator	gsp ag
CCC(C)(C)n1nnnc1C(c1ccc2ncccc2c1)N1CCCC(C)C1 (configuration not stated)	-2	-1.1%	0%	2.8	-20%	-13	-2%
O=C(Cc1cccc(NC(=O)C2CCN(C(=O)C3CCC3)CC2)c1)Nc1cccc(C(=O)N2CCOCC2)c1	1	0.3%	·	·	9%	·	·
C[C@H](CO)N1C[C@H](C)[C@@H](CN(C)C(=O)CN2CCOCC2)Oc2ncc(-c3cncnc3)cc2C1=O	-11	-3.2%	·	·	·	·	-23%
COCCNS(=O)(=O)c1ccc2c(c1)Cc1cc(S(=O)(=O)NCCOC)ccc1-2	10	0.7%	13%	5.0	6%	-10	2%[15.4 µM]
O=C(CSc1cn(CCNC(=O)c2ccc3ccccc3c2)c2ccccc12)NCc1ccco1	-23	-4.1%	-8%	1.6	?	14	-34%
CC(C)NC(=O)CC(=O)N/N=C/c1ccccc1F	1	0.3%	8%	-1.6	5%	·	-3%
C=CCN1CCN(C(=O)CSc2ccccc2)CC1	·	-3.1%	20%	-3.4	-5%	-8	-5%
COc1ccc2cc(C(=O)NCc3ccccc3)[nH]c2c1	5	·	3%	2.3	0%	-19	-42%[inhibitor][15.4 µM]
COc1ccc(CC2(CO)CCN(Cc3cnn(-c4ccc(F)cc4)c3)CC2)cc1	·	-0.4%	5%	0.1	5%	-10	35%
CC1CCCN(C(=O)CSc2nc3ncccc3[nH]2)C1 (configuration not stated)	4	·	3%	-1.4	-1%	-19	9%[15.4 µM]
CCOC(=O)c1cc(C(=O)c2ccccc2O)cn2c(=O)c3c(C)c(C)sc3nc12	·	·	45µM*	?	·	-15	·
Cc1ccc(S(=O)(=O)N2CCOCC2)cc1NC(=O)COC(=O)c1cncc(Br)c1	-9	-1.0%	·	·	10%	·	?
O=C(O)C1Cc2ccccc2CN1C(=O)c1ccccc1Cl (configuration not stated)	8	1.8%	14%	0.1	-15%	?	4%
COc1cc(-c2noc(-c3ccco3)n2)cc(OC)c1OC	1	-4.0%	13%	4.6	-9%	6	-19%
Cc1ccc(C(=O)CSc2nnc(N)s2)c(C)c1	-2	-6.4%	1%	-3.9	-3%	-21	-10%[15.4 µM]
CCC1Oc2ccc(C)cc2N(CC(=O)NCC2CCCO2)C1=O (configuration not stated)	3	·	0%	-12	11%	5	10%
Cc1cccc(NC(=S)N2CCC(N(C)CC3CCCO3)CC2)c1C (configuration not stated)	-20	-3.4%	13%	-0.1	8%	7	8%
O=C1C(C=NCc2ccncc2)=C(O)c2ccccc21	0	-1.7%	22%	0.3	-1%	9	4%
CCC(C)NC(=O)C1CCN(CCCc2ccccc2)CC1 (configuration not stated)	2	0.9%	11%	-1.7	19%	-3	6%[15.4 µM]
COc1ccccc1OCCC(=O)OCC(=O)NCc1ccc(F)cc1	·	1.2%	·	·	3%	·	-23%
COc1ccc(C(=O)N2CCN(C(=O)c3ccco3)CC2)cc1	5	-30%	5%	3.3	12%	4	?
COc1ccc(OC)c(CN2CCN(C(=O)CNC(=O)c3ccc(C(C)(C)C)cc3)CC2)c1	-9	-2.9%	·	·	-2%	-22	32%
COc1ccccc1-n1cnc2cc(NS(=O)(=O)c3ccc(Br)cc3)ccc21	-3	0.7%	12%	0.7	?	0	-37%
COc1ccc(CCNC(=O)C(=O)NCC2OCCN2S(=O)(=O)c2ccccc2)cc1OC (configuration not stated)	-7	-0.7%	4%	-0.8	6%	3	24%
COc1ccc(/C=C/C(=O)c2ccccc2)cc1COc1ccccc1F	10	0.3%	89µM*	0.5	-15%	-1	-29%

The listing continues.
SMILES	CtBP-E1A inh	ClpP mod	Sfp inh	Menin MLL FP FL	gsp antagonist	TRPV1 potentiator	gsp ag
COc1ccc(S(=O)(=O)N2CCC(C(=O)N3CCc4ccccc4C3)CC2)cc1Cl	11	-0.6%	-10%	4.2	-18%	8	23%
CC1CCN(C(=O)CN2C(=O)c3ccccc3S2(=O)=O)CC1	6	1.3%	7%	0.9	-13%	?	-5%
N#Cc1ccc(OCCN2C(=O)NC3(CCSC3)C2=O)cc1 (configuration not stated)	-1	-2.2%	-6%	0.1	4%	0	-26%
CCNC(=S)Nc1ccc(N2CCCCC2)cc1	0	2.1%	-18%	-2.6	9%	-7	-5%[15.4 µM]
COc1ccc(NC(=S)N(CCC(C)C)C(C)c2ccncc2)cc1 (configuration not stated)	-4	·	-15%	1.3	-2%	1	-6%[15.4 µM]
CCOC(=O)C1(C)NC(c2ccccc2F)C2C(=O)N(CC)C(=O)C21 (configuration not stated)	-7	28µM*	23%	-0.1	-9%	-7	7%[15.4 µM]
CCOC(=O)c1cccc(C2=CC(=O)CC(C)(C)C2)c1	4	-0.9%	·	·	-7%	-14	29%
O=C(Cn1c(=O)oc2cc(S(=O)(=O)N3CCCC3)ccc21)NC1CCCCC1	3	-1.3%	8%	-3.2	-4%	?	-100%[inhibitor]
CN1CC[C@]23c4ccccc4N[C@H]1[C@]21CCN(C)[C@H]3Nc2ccccc21	-13	1.4%	·	·	-3%	11	·
COc1cc(C(c2c(O)nc(SC)[nH]c2=O)c2c(O)nc(SC)[nH]c2=O)cc(OC)c1OC	·	-1.0%	?	-3.7	5%	-17	-5%
CN(C)c1ccc(/C=N/NC(=O)C[n+]2ccccc2)cc1	-16	·	·	·	?	·	26%
Brc1ccc2ncnc(Nc3ccc(N4CCOCC4)cc3)c2c1	?	-1.7%	-2%	4.7	8%	9	-9%
Cc1ccc(S(=O)(=O)NC(N)=NCCc2ccc(Cl)cc2)cc1C	0	35%	7%	2.3	10%	14	1%
CCOc1ccc(N2CC(C(=O)Nc3ccc4c(c3)OCO4)CC2=O)cc1 (configuration not stated)	13	·	-6%	-0.2	0%	6	-2%[15.4 µM]
Cc1cc(C)cc(N(C(=O)c2snc(C(N)=O)c2N)C(C(=O)NCC2CCCO2)c2ccc(C)o2)c1 (configuration not stated)	-1	·	11%	-0.8	-16%	-1	0%
O=C1C2C3c4ccccc4C(c4ccccc43)C2c2nc3ccccc3n21 (configuration not stated)	2	-1.5%	11%	1.7	?	-7	-40%[inhibitor]
CCCn1c(SCc2ccccn2)nc2c1c(=O)n(C)c(=O)n2C	4	-0.7%	12%	3.3	-1%	1	-6%
COc1cc(C=O)ccc1OCc1ccncc1	-12	-10%	8%	5.8	3%	-1	6%
CCN(CC)S(=O)(=O)c1cccc(C(=O)N[C@H](C(=O)OCC(=O)Nc2ccccc2)C(C)C)c1	-2	-1.0%	17%	-1.0	-30%	6	-6%
CCCN(CC(=O)Nc1ccccc1C)C(=O)c1nn(CC)c(=O)c2ccccc12	-1	-1.2%	·	·	4%	0	-1%
O=S(=O)(c1ccc(Br)cc1)c1nc(-c2ccco2)oc1NCCCn1ccnc1	8	-0.6%	·	·	12%	27	-7%
OCCN(Cc1ccccc1)CC1CC=CCC1 (configuration not stated)	11	-0.7%	-16%	4.3	6%	-7	-7%
CCCCCC(O)c1cccc(OCc2ccc3ccccc3n2)c1 (configuration not stated)	17	-1.1%	?	7.2&2.8&0.1	-23%	-3	·
CC(=O)Nc1ccc(/C=N/NC(=O)c2cc3ccccc3nc2C)cc1	-4	-5.0%	-7%	-3.2	6%	-5	-30%[inhibitor]
CC(=O)Nc1c(O)[nH]c2ccccc12	20	0.5%	8%	3.4	0%	10	-17%

Complete entries as entered above:
COc1ccc(C(=O)N2CCN(C(=O)c3ccco3)CC2)cc1 is entered as CtBP-E1A inh = 5; ClpP mod = -30%; Sfp inh = 5%; Menin MLL FP FL = 3.3; gsp antagonist = 12%; TRPV1 potentiator = 4; gsp ag = ?
CC(C)NC(=O)CC(=O)N/N=C/c1ccccc1F is entered as CtBP-E1A inh = 1; ClpP mod = 0.3%; Sfp inh = 8%; Menin MLL FP FL = -1.6; gsp antagonist = 5%; TRPV1 potentiator = ·; gsp ag = -3%

New compounds follow:
SMILES	CtBP-E1A inh	ClpP mod	Sfp inh	Menin MLL FP FL	gsp antagonist	TRPV1 potentiator	gsp ag
O=C(N/N=C/c1coc2ccccc2c1=O)c1cn(-c2ccccc2)nc1-c1ccccc1	-16	-6.5%	12%	-1.3	-12%	2	-4%
Cn1nc(-c2ccccc2)cc1NS(=O)(=O)c1ccccc1	·	-0.2%	16%	1.5	-5%	1	4%
Cc1ccc2nc(C)cc(N/N=C/c3ccccc3O)c2c1	·	3.7%	6%	-0.9	0%	19	-58%[inhibitor]
Cc1[nH][nH]c(=O)c1/C=N/N1CCOCC1	·	-1.6%	-2%	-0.4	-5%	12	-13%
CCOC(=O)CCN(Cc1sccc1C)S(=O)(=O)c1ccc(F)cc1	50	1.1%	15%	-0.3	-11%	-15	-25%
CC(C)c1ccccc1OCC(=O)Nc1cc(S(=O)(=O)N2CCOCC2)ccc1N1CCCC1	-12	·	·	·	-23%	11	-20%[15.4 µM]
CN(C(=O)COC(=O)c1ccccc1Nc1ccccc1)C1CCS(=O)(=O)C1 (configuration not stated)	9	-4.0%	9%	8.1	5%	-6	-31%[inhibitor]
Cc1nn(C)c(NC(=O)c2ccccc2Cl)c1Br	-2	1.1%	-1%	4.6	14%	-1	?
CC(C)OC(=O)c1cc2ccccc2oc1=O	7	-28%	7%	1.5	3%	·	-12%
COc1ccccc1-c1nc2c3ccccc3nc(=S)n2[nH]1	-5	-0.6%	45µM*	-11	-3%	23	14%
COc1ccccc1NC(=O)CCC(=O)OCc1ccc([N+](=O)[O-])cc1	·	0.3%	18%	0.9	14%	5	16%
Cc1ccccc1CC(=O)N1CCN(C(=O)C2CCCO2)CC1 (configuration not stated)	9	-2.1%	4%	·	6%	-1	-1%
CN(C)C(=O)COC(=O)c1ccccc1NC(=O)c1ccco1	·	-5.2%	19%	3.2	-15%	6	-9%
O=C1NC(Cc2ccc(O)cc2)c2nc3ccccc3c(=O)n2-c2ncccc21 (configuration not stated)	5	1.1%	·	·	·	·	?
CN1CCN(CCCNC(=O)c2cn(C3CCCCC3)c(=O)c3c2c2ccccc2n3C)CC1	-2	?	-9%	0.4	9%	4	0%
CS(=O)(=O)N1CC(C(=O)O)Oc2ccc(CC(=O)O)cc21 (configuration not stated)	-10	·	-7%	0.0	5%	7	-8%[15.4 µM]
